Source: PubChem
Sa helicase inh: blocks Staphylococcus aureus DNA helicase; purified S. aureus helicase, fluorescence unwinding assay; about half of the hits fall short of the stated cut; inhibition, %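 (tested at about 80 µM)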; hit rate 0.05% among 120,000;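 active = both duplicates at 50% or more, or one of them with a favoured structure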;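 note: 0% = mean of negative control wells and 100% = mean of positive control wells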
MgrA-DNA mod: alters Staphylococcus aureus MgrA binding to DNA | fluorescence polarization | inhibition, %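 (about 10 µg/mL by stock and volumes)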 | hit rate 0.13% among 84,000 | AID 602314;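 active = above 50% in either of two replicates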;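 note: 0% = protein plus DNA without compound and 100% = DNA alone without protein; higher means less MgrA bound to DNA so lower polarization; one replicate is shown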
* hit, by the source's call; . = no result given.

#	Structure	Sa helicase inh	MgrA-DNA mod
1	O=c1cnnc(SCc2ccccc2)[nH]1	-1.0	.
2	Cc1cc(C)c2oc(-c3cc(NC(=O)CC(C)C)ccc3Cl)nc2c1	10.0	.
3	CCc1c(C)sc(NC(=O)/C=C/c2ccc(F)cc2)c1C(=O)OC	0.0	-0.2
4	COC(=O)CSc1nnc(-c2ccc(NC(C)=O)cc2)o1	7.0	-3.2
5	COc1ccc(-c2n[nH]c(=S)[nH]c2=O)cc1	6.0	.
6	O=Cc1c2[nH]c3ccccc3c2cc2[nH]c3ccccc3c12	.	14.0
7	COc1cc(OC)cc(-c2nnc(NC(=O)c3ccc(S(=O)(=O)N4COCC4(C)C)cc3)o2)c1	9.0	.
8	O=C(O)c1ccc(NC(=O)c2cccc(Br)c2)cc1	-2.0	2.1
9	NC(=O)CCN1CCOCC1	0.0	2.9
10	CN1CCN(C(=S)c2cccc(OCc3ccccc3)c2)CC1	10.0	-3.0
11	Cc1ccc2c(CC(=O)N(Cc3nnc(-c4ccccc4)o3)C(C)C)coc2c1	-3.0	.
12	CC(=O)Nc1nc2ccccc2n1Cc1ccccc1	.	-0.7
13	C=CCn1c(C)cc(C(=O)CSc2nnc(N)s2)c1C	4.0	.
14	CC1(C)CC(NC(=O)CCCOc2ccc(Cl)cc2Cl)CC(C)(C)N1	13.0	.
15	COC(=O)CSc1cc(C)nc2ccccc12	.	0.8
16	O=C(c1cccc(C(=O)N2CCN(c3ccccc3)CC2)c1)N1CCN(c2ccccc2)CC1	-15.0	.
17	CN1C=C(C(F)(F)F)C=CC1=C(C#N)C#N	0.0	.
18	CCN(CC)C(=O)N1c2ccccc2Sc2ccccc21	-1.0	0.9
19	CC(Cn1c(=S)[nH]c2c(oc3ccccc32)c1=O)c1ccccc1 (stereo not drawn)	-21.0	.
20	CC(=O)Nc1ccc(C2CCCCC2)cc1	.	3.3
21	CC(C)c1cc(CN2CCN(CCC#N)CC2)cc(C(C)C)c1O	10.0	.
22	COc1cc(OC)c(NC(=O)N2CCC(CN3CCc4ccccc4C3)CC2)cc1Cl	-5.0	0.4
23	CC(C)NC(=O)N1CCn2cccc2C1C(C)C (stereo not drawn)	16.0	.
24	C=CCOc1ccc(NC(=O)c2ccc(C)cc2)cc1	-18.0	0.6
25	CCOC(=O)c1c(C)noc1CP(=O)(c1ccccc1)c1ccccc1	17.0	.
26	Cn1c2c(c3ccccc31)/C(=N/OC(=O)c1cccc(C(F)(F)F)c1)CCC2	.	-1.0
27	Cc1ccc(-c2coc3cc4oc(=O)c5c(c4cc23)CCC5)cc1	13.0	.
28	CCc1ccc(O)c(C(=O)c2cnc3onc(C(C)C)c3c2)c1	-5.0	.
29	CCCCn1c(SCC(=O)NCc2cccs2)nnc1C(CC)N(C)C (stereo not drawn)	-12.0	.
30	O=C(Nc1ccc(F)c(Cl)c1)c1cc(S(=O)(=O)N2CCC3(CC2)OCCO3)ccc1F	2.0	.
31	CCOC(=O)c1c(C=O)oc2c(C)cc(OC(=O)c3cccc(OC)c3)c(Br)c12	.	0.3
32	CCN(CC)c1nc(-c2ccccc2)c2cc(Cl)ccc2n1	-4.0	.
33	Cc1ccccc1Nc1c(-c2ccsc2)nc2c[n+](CC(N)=O)ccn12	12.0	1.9
34	COc1ccc(CCNC(=O)c2cc(-c3ccco3)on2)cc1OC	2.0	.
35	Cn1cc(CC(=O)NCCN2CCN(Cc3ccccc3)CC2)c2ccccc21	17.0	.
36	OC(CNC1CCc2ccccc21)COc1ccc(-c2csnn2)cc1 (stereo not drawn)	.	-4.5
37	COc1ccc(C2CC(=O)C3=C(C2)NC(C)=C(C(=O)OCCOc2ccccc2)C3c2ccc3c(c2)OCO3)cc1 (stereo not drawn)	.	2.2
38	Cc1cccc(N2CCN(C(=O)COc3ccc(C#N)cc3)CC2)c1C	-19.0	0.2
39	O=C(CNc1ccccc1)N/N=C/c1ccc(O)cc1	-6.0	.
40	CCCN(CCC)C(=O)/C=C/c1ccc(OC)c(OC)c1	2.0	1.2
41	O=C1c2cccnc2C(=O)N1Cc1ccc(S(=O)(=O)Nc2ccc(F)cc2)s1	12.0	.
42	COc1ccc(CCN(C)CCC(=O)Nc2c(C)cc(C)cc2C)cc1OC	9.0	-2.1
43	O=C(C1=NNC2C(=O)N(c3ccccc3)C(=O)C12)c1cccnc1 (stereo not drawn)	15.0	-1.8
44	CCN1CCN(S(=O)(=O)c2ccc(Oc3ccccc3)cc2)CC1	22.0	.
45	CC(O)C(=O)N/N=C/c1ccccc1 (stereo not drawn)	32.0	0.7
46	Cc1ccc2c(c1)c1c(n2CC(O)CO)C(=O)CCC1 (stereo not drawn)	3.0	0.9
47	CN(C)c1ccc2nc3c(nc2c1)C(=O)c1ccccc1C3=O	23.0	5.8
48	Cn1c(SCC(=O)Nc2cc(C(C)(C)C)nn2-c2ccccc2)nnc1C1CC1	1.0	.
49	COc1cccc(C2N(Cc3ccccc3)C(=O)C2(F)F)c1OC (stereo not drawn)	2.0	2.6
50	CC(C1CC2CCC1C2)n1c(SCC(=O)c2ccc(Cl)s2)nnc1-c1cccs1 (stereo not drawn)	-7.0	.
51	c1nc(Oc2ccc(-c3nnco3)cc2)c2c3c(sc2n1)CCCC3	-6.0	.
52	COc1cc(C=O)ccc1Oc1nc(N2CCOCC2)nc(N2CCOCC2)n1	.	-2.2
53	Cc1cc(C)nc(N/C=C(\C#N)S(=O)(=O)c2ccc(Cl)cc2)n1	.	-1.2
54	FC(F)(F)c1ccc(-c2noc(C3CCCCC3)n2)cc1	5.0	2.0
55	Nc1cc(=O)[nH]c(=O)n1C1CC1	9.0	.
56	O=C(CN1CCSc2ccccc21)Nc1ccc(N2CCOCC2)cc1	-12.0	.
57	CN(C)C(=O)COC(=O)c1ccc(C#N)cc1	-2.0	.
58	O=C(NCc1ccccc1Cl)c1ccc2c(Cl)c3c(nc2c1)CCCC3	16.0	1.1
59	Cc1ccc(C)c(OC(=O)C2CC(=O)N(c3ccc4c(c3)OCCO4)C2)c1C (stereo not drawn)	2.0	.
60	CCOC(=O)C1=C(C)NC2=C(C(=O)CC(C)(C)C2)C1c1ccccc1 (stereo not drawn)	-20.0	.

4 entries picked at random from those above:
#	Structure	Sa helicase inh	MgrA-DNA mod
52	COc1cc(C=O)ccc1Oc1nc(N2CCOCC2)nc(N2CCOCC2)n1	.	-2.2
59	Cc1ccc(C)c(OC(=O)C2CC(=O)N(c3ccc4c(c3)OCCO4)C2)c1C (stereo not drawn)	2.0	.
46	Cc1ccc2c(c1)c1c(n2CC(O)CO)C(=O)CCC1 (stereo not drawn)	3.0	0.9
53	Cc1cc(C)nc(N/C=C(\C#N)S(=O)(=O)c2ccc(Cl)cc2)n1	.	-1.2

Next part.
#	Structure	Sa helicase inh	MgrA-DNA mod
61	Cn1nc(OC(=O)Nc2ccccc2)cc1C(F)(F)F	.	-1.9
62	O=C(N/N=C1\CC(=O)c2ccccc21)c1ccc(CSc2nc3ccccc3o2)cc1	-20.0	.
63	O=C1CNCCN1C1CCCCC1	3.0	-2.1
64	CCCc1cc(=O)oc2c(C)c3oc(C)c(C)c3cc12	-10.0	0.7
65	CN(C)c1ccc(/C=N/NC(=O)CN2CC(c3ccccc3)CC2=O)cc1 (stereo not drawn)	-24.0	.
66	NC(=S)N(c1ccccc1)c1ccccc1	-1.0	3.1
67	CCOC(=O)CC1=Nn2c(nnc2C2CCCCC2)SC1	12.0	.
68	Nc1ccc(C(=O)NN=C2C3CC4CC2CC(O)(C4)C3)cc1	20.0	2.4
69	O=C(O)CCC(=O)N1CCCc2ccccc21	.	-1.0
70	Cc1ccc(C)c(SCC(=O)NC(=O)NC2CCCC2)c1	3.0	.
71	CC1CCCC(N2CCC(N3CCN(CCO)CC3)CC2)C1 (stereo not drawn)	4.0	.
72	CC1(c2ccccc2)CC(C)(C)N2C(=O)/C(=C3\SC(=O)NC3=O)c3cccc1c32 (stereo not drawn)	13.0	3.1
73	O=C(CCn1ccnc1)OCc1ccccc1	17.0	.
74	FC(F)(F)c1cc(Cl)c2nnc(C(F)(F)Cl)n2c1	.	0.2
75	Cc1nc(C#N)c(C#N)nc1C	.	-1.5
76	O=C(CSc1ssc(=S)c1-c1ccccc1)c1ccccc1	.	-1.1
77	Cc1cc(-c2ccc(S(=O)(=O)NC3CCCc4ccccc43)s2)n[nH]1 (stereo not drawn)	22.0	.
78	CN1CCN(c2ccc(NS(=O)(=O)c3cccc4nonc34)cc2)CC1	.	0.8
79	O=C(/C=C1\SC(=O)NC1=O)Nc1ccc(F)cc1	10.0	.
80	COc1ccc(S(=O)(=O)N(C)C2(C)CCS(=O)(=O)C2)cc1C (stereo not drawn)	7.0	.
81	CCc1ccc(NC(=O)CSc2nnc(CNC(=O)c3ccc4c(c3)OCO4)n2C)cc1	-1.0	1.8
82	N=c1c2c(-c3ccccc3)c(-c3ccccc3)oc2ncn1CCCO	-3.0	.
83	CCNC(=O)c1ccc(-n2nc(C(F)(F)F)c3c2CCCC3)cc1	6.0	-1.2
84	O=C(OCCn1c2ccccc2c2nc3ccccc3nc21)c1cccnc1	14.0	.
85	Cc1ccc(C)c(C(=O)COC(=O)c2ccc[nH]c2=O)c1	4.0	.
86	Cc1ccccc1OCc1nc(-c2ccc(NC(=O)c3ccc(Br)o3)cc2)no1	-1.0	.
87	COc1cccc(-c2nc(-c3cc(C)n(C4CC4)c3C)cs2)c1OC	-7.0	.
88	c1ccc(C2NCCS2)cc1 (stereo not drawn)	0.0	.
89	O=c1c(CN2CCN(Cc3ccccc3)CC2)coc2ccccc12	-3.0	3.9
90	CN(C)CCC(=O)c1ccc2c(c1)OCCCO2	17.0	0.4
91	CCc1nnc(NC(=O)CSc2nccn2-c2ccc(Cl)cc2)s1	1.0	.
92	COC(=O)c1cc2sccc2n1CC(=O)Nc1cc(OC)cc(OC)c1	16.0	-0.3
93	CC(C)=C1N=C(c2ccc(Cl)cc2)OC1=O	3.0	2.3
94	NC1=NC(=O)C(CC(=O)Nc2cccc(C(=O)NCCc3ccc(S(N)(=O)=O)cc3)c2)S1 (stereo not drawn)	-12.0	.
95	CCCn1c(SCC(=O)c2cccs2)n[nH]c1=O	-4.0	.
96	Oc1cc2c(cc1CN1CCc3ccccc3C1)CCC2	-9.0	.
97	Cc1nn(-c2ccccc2)c(C)c1CN(C)CC(=O)Nc1ccc(S(=O)(=O)N(C)C)cc1	8.0	.
98	Cc1ccc(C)n1CCN1CCN(C(=O)c2ccc(Cl)cc2)CC1	.	-0.7
99	CCc1ccc(C(O)(c2ccccc2)C(CN2CCOCC2)c2ccccc2)cc1 (stereo not drawn)	5.0	-2.0
100	NC(=O)c1ccc(OCC(=O)NC(=O)NCC2COc3ccccc3O2)cc1 (stereo not drawn)	-7.0	.
101	O=C(CN1C(=O)c2ccccc2C1=O)Oc1ccc2ccccc2c1	12.0	-1.9
102	CC12CC3(C)CC(C)(C1)CC(C(=O)NN)(C2)C3	8.0	.
103	Cc1cccn2c(=O)c(/C=C3\SC(=S)NC3=O)c(NCc3ccco3)nc12	-87.0	.
104	Cc1onc(-c2ccccc2)c1C(=O)NCC(O)c1ccccc1 (stereo not drawn)	.	-0.3
105	FC(F)(F)c1ccc(NCc2ccc3c(c2)OCO3)nc1	-2.0	.
106	CCN1C(=O)CC(NC23CC4CC(CC(C4)C2)C3)C1=O (stereo not drawn)	7.0	.
107	Oc1c(Cl)cc(Cl)cc1C=Nc1cc(C(F)(F)F)ccc1N1CCOCC1	.	-3.6
108	CN1C(=O)/C(=C\C(=O)c2cccs2)c2ccccc21	-11.0	-2.8
109	COc1ccc(Nc2nc3[nH]c(=O)cc(O)c3s2)cc1	-25.0	.
110	COc1ccc(CNC(=O)CSCc2ccccc2F)cc1	10.0	.
111	Cc1cc(-c2ccc(S(=O)(=O)Nc3ccccc3)s2)n[nH]1	-23.0	.
112	Cc1cc2cc(CNC(=O)C(C)Oc3ccccc3)ccc2n1C (stereo not drawn)	15.0	.
113	CC(C)CN(CC(C)C)S(=O)(=O)N1CCC(C(=O)N2CCc3ccccc3C2)CC1	6.0	-1.9
114	S=c1[nH]c2cc(Cl)ccc2o1	.	3.2
115	COc1cc(C=C2C(=O)NC(=O)NC2=O)ccc1OCCOc1ccc(C)cc1	.	0.9
116	Cc1cc(C(=O)COC(=O)Cn2c(C(F)(F)F)nc3ccccc32)c(C)n1Cc1ccco1	12.0	.
117	CCOc1c(OC)cc(C#N)cc1C(=O)O	4.0	-2.2
118	N#CCCS(=O)(=O)c1ccc(Oc2ccc(S(=O)(=O)CCC#N)cc2)cc1	-11.0	-0.6
119	Cc1ccc(C)c(-c2nc3ccc(N)cc3[nH]2)c1	0.0	.
120	O=C(Cc1cn2ccsc2n1)NN=C1c2ccccc2-c2ccccc21	6.0	.

Other entries:
#	Structure	Sa helicase inh	MgrA-DNA mod
121	O=C(NCc1ccsc1)C1CCCCN1 (stereo not drawn)	.	1.6
122	CCCNC(=O)C1CCN(C(=O)N2CCOc3ccccc32)CC1	13.0	.
123	Cc1ccccc1OCCCC(=O)Nc1nc2ccccc2s1	-3.0	.
124	Cc1ccc(-c2nc3cc(Cl)ccc3o2)cc1NC(=O)c1ccco1	3.0	3.7
125	Cc1ccc(N)cc1NS(C)(=O)=O	-4.0	.
126	O=P(O)(c1ccccc1)c1nccn1-c1ccc(Cl)nn1	2.0	.
127	CCOCCC(=O)Nc1ccc(Cl)cc1	10.0	1.0
128	CSC(=S)N(C)c1nc2ccccc2s1	2.0	0.4
129	CNC(=O)C1=C(C)Nc2nc3ccccc3n2C1c1ccc(F)cc1 (stereo not drawn)	17.0	5.3
130	CC(=O)Nc1c(C#N)c(C(C)(C)C)cn1C	-4.0	-1.3
131	Cc1ccc(C(=O)CC(C(=O)O)N2CCN(C)CC2)cc1 (stereo not drawn)	9.0	1.2
132	O=C(Nc1ccc(F)cc1F)c1ccc2nonc2c1	.	-0.8
133	COc1cccc(CNc2ccc3c(c2)ncn3C(C)(C)C)c1OC	7.0	-0.9
134	C=CCn1c2ccccc2c2nnc(SCCCC(=O)c3ccc(F)cc3)nc21	6.0	0.2

A portion of the library, so the mix of outcomes need not match the whole.
